Bioassay records from PubChem.
TRPV1 PAM: potentiators of human vanilloid receptor 1 (TRPV1) | Q8NER1 | TRPV1-expressing cells, Fluo-8 calcium influx, capsaicin EC20 potentiation; host cell line not named in the record; control for the full effect not named in the record | potentiation, % at 8.33 µM | 320,000 tested, 0.02% active; active means potentiation above 80%; inconclusive means 30% to 80%; inactive means below 30%; further: 0% is about no effect
Target sequence (Q8NER1 whole entry, looked up): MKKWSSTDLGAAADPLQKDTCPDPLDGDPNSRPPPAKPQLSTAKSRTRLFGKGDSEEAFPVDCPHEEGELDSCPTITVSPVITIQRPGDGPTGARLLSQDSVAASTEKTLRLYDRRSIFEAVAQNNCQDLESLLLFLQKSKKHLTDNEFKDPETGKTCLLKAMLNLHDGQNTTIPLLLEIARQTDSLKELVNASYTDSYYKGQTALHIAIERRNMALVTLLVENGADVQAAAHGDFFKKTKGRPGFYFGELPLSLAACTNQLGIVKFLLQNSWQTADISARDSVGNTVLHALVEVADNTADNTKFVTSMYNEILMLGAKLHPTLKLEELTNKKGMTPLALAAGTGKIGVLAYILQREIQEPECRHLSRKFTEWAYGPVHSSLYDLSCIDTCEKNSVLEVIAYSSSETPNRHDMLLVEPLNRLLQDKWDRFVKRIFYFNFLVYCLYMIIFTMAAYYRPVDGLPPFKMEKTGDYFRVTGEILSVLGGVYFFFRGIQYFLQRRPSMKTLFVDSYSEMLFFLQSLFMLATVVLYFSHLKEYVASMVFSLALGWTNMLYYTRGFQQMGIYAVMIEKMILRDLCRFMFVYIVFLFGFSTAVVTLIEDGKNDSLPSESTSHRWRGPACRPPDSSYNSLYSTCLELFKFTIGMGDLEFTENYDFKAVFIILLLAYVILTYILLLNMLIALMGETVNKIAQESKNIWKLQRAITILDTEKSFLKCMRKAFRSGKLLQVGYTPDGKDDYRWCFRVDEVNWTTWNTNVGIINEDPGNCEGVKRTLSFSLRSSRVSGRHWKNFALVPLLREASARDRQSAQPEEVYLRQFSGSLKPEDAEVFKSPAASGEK
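TRPV1-expressing cells were cultured overnight at 35.5C and loaded with Fluo-8 calcium dye for 40 to 90 min at room temperature. After a 10 s baseline, compound was added and calcium influx was read kinetically for 3 min (ex 480/em 520 nm).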
D2 potentiator: human D2 receptor positive allosteric modulation; P14416; DiscoveRx D2 beta-arrestin cells, luminescence, 90 min; 100% = 57 uM dopamine signal; potentiation, % (no concentration beside the values); 360,000 tested, 0.23% active; active = potentiation of 50% or more; inconclusive = 30% to 50%; inactive = 30% or less;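 further: compound concentration not given in the record; tested on top of an EC20 dose of dopamine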
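PathHunter beta-arrestin assay in DiscoveRx D2 cells. Compounds were added with an EC20 of dopamine (50 nM final) for 90 min at 37 deg C. Luminescence was read 1 h after detection reagent, with 57 uM dopamine as the EC100 control.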
ClpP mod: qHTS Assay for Activators of ClpP; 340,000 tested, 1.9% active; AID 651965, 2013; purified B. subtilis ClpP, FRET peptide cleavage, 20 min; Potency, µM (highest dose often 57.5 µM), for the others: at the top dose activity change, negative = active; ATP-dependent Clp protease proteolytic subunit (Bacillus subtilis (strain 168)), P80244; active = well fitted falling curve with a large enough effect; inconclusive = small, poorly fitted or top-dose-only effect; inactive = no such curve, though single readings can be large or run the other way; further: potency means the concentration at half of the fitted maximal effect; the source files actives as falling curves though it sought activators and does not explain the sign; nearly all actives have a fitted effect of over 65% in size; many hits overshoot -100%
Target sequence (P80244 whole entry, looked up): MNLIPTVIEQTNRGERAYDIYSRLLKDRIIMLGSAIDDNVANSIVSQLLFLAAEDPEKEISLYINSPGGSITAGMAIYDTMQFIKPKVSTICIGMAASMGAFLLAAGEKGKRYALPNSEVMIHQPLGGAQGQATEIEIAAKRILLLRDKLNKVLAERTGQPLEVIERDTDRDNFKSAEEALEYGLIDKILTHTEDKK
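Purified B. subtilis ClpP, 10 microg/mL final in Tris/HCl pH8 with KCl, BSA, glycerol and Tween-20, cleaved an Abz/nitrotyrosine-quenched decapeptide. Fluorescence (ex 320, em 430) was read at 0 and 20 min at room temperature. Delta was normalized to 5.8 microM ADEP and DMSO/no-enzyme controls.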
gsp antagonist: gsp mutant antagonism. Potency, µM (doses to about 76.9 µM), without a hit: top-dose activity change, negative = inhibition, most hits filed as inhibitors. gsp-mutant cells, cAMP HTRF, 30 min; control for the full effect not named in the record. 340,000 tested, 0.4% active; active = falling curve of any shape with a large fitted effect; inconclusive = falling curve, mostly with a smaller effect; inactive = flat or rising curve; cell line not stated here;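 further: intracellular cAMP measured with PDE inhibitor Ro 20-1724 present during compound exposure; potency means the concentration at half of the fitted maximal effect; on the % scale 0 is the no-effect control and ±100 the full control effect; nearly all actives have a fitted effect of over 65% in size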
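G418-selected cells were plated in DMEM/10% FBS for 16-24 h at 37C, then treated with compounds plus the PDE inhibitor […] (300 uM solution added) for 30 min at 37C. Intracellular cAMP was measured by HTRF after 30 min lysis at room temperature.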
gsp agonist: agonists of gsp mutant (McCune-Albright syndrome) | gsp mutant cells, cAMP HTRF, 30 min; control for the full effect not named in the record | Potency, µM (doses to about 76.9 µM), for inactives: at the highest dose activation (cAMP increase), most hits filed as activators | 340,000 tested, 0.13% active | AID 624287; active = well fitted activation curve with a large enough effect; inconclusive = small, poorly fitted or top-dose-only effect, or another doubt; inactive = no such curve, though single readings can be large or run the other way; cell line not stated here;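 further: phosphodiesterase inhibitor Ro 20-1724 added with compounds to block cAMP breakdown; potency means the concentration at half of the fitted maximal effect; nearly all actives have a fitted effect of over 60% in size; about a fifth of the inactives were tested at one dose only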
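Cells stably selected in G418 were plated at 2000/well, grown 16-24 hr, then given compounds in DMSO with the PDE inhibitor […] (300 uM solution added) for 30 min at 37C; cAMP was read by HTRF.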
Menin MLL FP FL: displaces fluorescein MLL peptide from human menin. FP activity change, % at 61.4 µM. Fluorescence polarization, fluorescein-MLL peptide displacement from menin. 290,000 tested, under 10 active; inconclusive = falling polarisation curve, or a change in total fluorescence; inactive = total fluorescence flat and polarisation flat or rising; no compound was filed as active; the % refers to the polarisation; negative = inhibition;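 further: % of control where 0% means no effect; inhibitors lower the polarisation; unlabelled MLL peptide was the positive control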
Sfp PPTase inh: inhibitors of Bacillus subtilis Sfp phosphopantetheinyl transferase. Q9F4F7. Biochemical Sfp PPTase activity, qHTS. Potency, µM, for inactives: max response, negative = inhibition, usual class: inhibitors. 310,000 tested, 3.5% active. AID 1490; active means well fitted inhibition curve with a large enough effect; inconclusive means small, poorly fitted or top-dose-only effect, or another doubt; inactive means no such curve, though single readings can be large or run the other way;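 further: the enzyme is Sfp with the accession as filed and its product quenches rhodamine fluorescence; potency means the concentration at half of the fitted maximal effect; 0% = enzyme reaction without inhibitor and -100% = no enzyme wells; top concentration of the series not given in the record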
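Reaction rates are the 30-min fluorescence difference (ex 525, em 598 nm) in wells containing 15 nM Sfp, 5 uM rhodamine-CoA and 12.5 uM BHQ-2-YbbR at pH 7.6 with 10 mM MgCl2.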
An asterisk follows results filed as active; ? = inconclusive; . = not tested or not shown; [ ] = dose if it differs, or a comment.

no.	SMILES	TRPV1 PAM	D2 potentiator	ClpP mod	gsp antagonist	gsp agonist	Menin MLL FP FL	Sfp PPTase inh
1	O=C(Nc1ccc(Br)cn1)c1cccc(C(=O)Nc2ccc(Br)cn2)c1	-15	-1	.	0%	15%	-10	2%
2	CCOc1ccc(NC(=S)NC(=O)c2ccco2)cc1	21	26	1.6%	-4%	-87%[inhibitor]	2.7	56µM*
3	COc1cc(-c2noc(C)n2)cc(OC)c1OC	-9	-5	1.3%	10%	15%[15.4 µM]	-1.1	22%
4	CCCCN(C(=O)c1cccc(S(=O)(=O)N2CCCC2)c1)c1c(N)n(CCC)c(=O)[nH]c1=O	-9	-5	0.4%	11%	-28%	.	.
5	CCC(C)(C(=O)NC1CCCCC1)N(CC1CCCO1)C(=O)Cc1cccs1 (stereo unspecified)	5	-2	.	-2%	2%[15.4 µM]	-3.1	13%
6	NNC(=O)CSc1c(-c2cccs2)[nH]c2ccccc12	1	-3	1.3%	16%	-35%[inhibitor]	1.6	-3%
7	O=C1c2cccc(NCCCNCCO)c2C(=O)c2cccc(NCCCNCCO)c21	.	-32	-1.4%	40µM*	-3%	.	.
8	Cc1c(-c2nc(N)nc(Nc3ccccc3)n2)oc2ccccc12	-2	14	-3.4%	-24%	-28%	1.4	-9%
9	CC(C)(C)NC(=O)C1CCN(S(=O)(=O)c2ccc(Br)cc2)CC1	-4	-4	1.9%	-8%	-27%	5.7	20%
10	CC(=O)Nc1ccc(NC(=O)CCc2c(C)noc2C)cc1	-1	9	-1.3%	2%	11%	.	.
11	C=CCC(C)(NCc1ccccc1)c1ccccc1 (stereo unspecified)	1	22	-0.3%	2%	13%	1.7	2%
12	CCOc1ccc(-n2c(N)c(C(=O)N3CCN(C)CC3)sc2=S)cc1	-2	-4	-1.7%	17%	8%	-0.6	14%
13	Cn1c(=O)c2c(ncn2CC(=O)OCC(=O)NCc2ccc(Cl)cc2)n(C)c1=O	4	1	-0.4%	11%	-8%[15.4 µM]	5.2	11%
14	CCCS(=O)(=O)c1snnc1C	-3	-6	1.9%	-1%	-14%	4.4	7%
15	Nc1nc(NCc2c(F)cccc2Cl)nn1-c1ccccc1	4	-1	1.6%	17%	-2%	-1.2	1%
16	O=C(C1CCN(Cc2cn[nH]c2-c2ccc(F)cc2F)CC1)N1CCOCC1	0	-15	-9.3%	3%	11%[15.4 µM]	-1.6	13%
17	O=C1NC(c2cccc(OCc3ccccc3)c2)Nc2ccccc21 (stereo unspecified)	.	-13	32µM*	-17%	5%	.	.
18	CCOC(=O)c1[nH]ncc1CN1CCN(Cc2ccccc2)C(CCO)C1 (stereo unspecified)	9	-5	-0.1%	5%	-12%	1.0	8%
19	O=C1C=C(c2cccc3c2sc2ccccc23)C[C@@H](c2ccc(F)cc2)C1	5	-4	-0.7%	?	-30%[inhibitor]	.	.
20	COCCN(CC(=O)NCc1ccc2c(c1)OCO2)C(=O)CCC(=O)Nc1nccs1	-4	-4	0.9%	4%	-5%	-0.4	36%[activator]

The listing continues.
no.	SMILES	TRPV1 PAM	D2 potentiator	ClpP mod	gsp antagonist	gsp agonist	Menin MLL FP FL	Sfp PPTase inh
21	O=C(CNC(=O)c1ccccc1)Oc1ccc([N+](=O)[O-])cc1	5	-3	.	0%	12%[15.4 µM]	8.1	8%
22	CC(=O)N1CCc2cc(C(=O)CN3CCN(c4ccccn4)CC3)ccc21	-23	24	.	2%	-9%[15.4 µM]	-1.8	50µM*
23	CCc1nnc(NC(=O)CCC(=O)Nc2ccccc2)s1	4	4	-1.3%	-1%	18%	-0.8	21%
24	CCc1cc(CNC(=O)C2CCC(=O)N(CCc3ccc(OC)cc3)C2)on1 (stereo unspecified)	-6	-2	-12%	0%	-48%[inhibitor]	-1.9	8%
25	COc1ccc(OC)c(C2C(C(C)=O)=C(O)C(=O)N2CCN2CCOCC2)c1 (stereo unspecified)	-3	3	-4.7%	-3%	-3%	-0.6	-22%
26	COc1ccc(C(=O)C[n+]2ccc(C)cc2)cc1	-8	-21	?	0%	0%	7.6	0%
27	CCn1cc(C(=O)Nc2sc(C)c(C)c2C(=O)OC)cn1	-10	-2	-0.7%	-9%	32%[15.4 µM]	4.5	-19%
28	COc1nc(NCc2ccco2)nc(NC2CCCCC2)n1	-10	-2	-3.2%	-12%	0%	3.5	8%
29	COc1cc(NC(=O)c2ccccc2)c(OC)cc1NC(=O)Cc1ccccc1	-6	0	-0.2%	-23%	15%[15.4 µM]	0.7	-11%
30	Cc1cccc(-c2nsc(SCC(=O)NCC3CCCO3)n2)c1 (stereo unspecified)	-11	7	-0.1%	10%	-5%[15.4 µM]	-1.6	?
31	Cc1ccc(NC(=O)COC(=O)Cn2c(C)csc2=O)cc1S(=O)(=O)N1CCOCC1	.	-4	-2.4%	-7%	-64%[inhibitor]	.	.
32	O=C(c1cc(C2CC2)nn1-c1ccccc1)N1CCN(c2ncc(C(F)(F)F)cc2Cl)CC1	-7	-11	-2.3%	-6%	-44%[inhibitor]	.	.
33	O=C(NCc1ccc2c(c1)OCO2)c1cc2n(n1)C(C(F)(F)F)CC(c1ccc3c(c1)OCO3)N2 (stereo unspecified)	2	-4	-2.0%	5%	-20%	10	-1%
34	Cc1cc(OCC(=O)Nc2ccc(N3CCN(C(=O)c4ccco4)CC3)cc2)cc(C)c1Cl	-2	1	0.4%	-11%	20%	5.3	-28%
35	COc1cc2nc(=S)n3[nH]c(CCn4c(C)nc5ccccc54)nc3c2cc1OC	3	-6	1.9%	5%	?	0.2	?
36	O=C(/C=C/c1cc([N+](=O)[O-])ccc1OC(F)F)NCc1ccc(Cl)cc1	-5	-36	-2.0%	-3%[15.4 µM]	-53%[inhibitor]	4.6	?
37	O=C(OCC(=O)N1CCN(C(=O)c2ccco2)CC1)c1cncc(Br)c1	2	-2	-0.1%	4%	6%	.	.
38	CCN1CCN(C(=O)Cn2nc(-c3ccc(Cl)cc3)ccc2=O)CC1	11	-4	.	13%	-10%[15.4 µM]	-1.8	17%
39	COc1ccc(CNC(=O)c2cc(C(=O)C3CC3)c[nH]2)cc1	-8	-25	2.2%	12%	29%	.	19%
40	O=C(/C=C/c1ccco1)Nc1ccccc1N1CCCCC1	-6	-5	0.7%	-24%	0%	5.3	-21%

A second format for some results above.
Every second line gives: TRPV1 PAM, D2 potentiator, ClpP mod, gsp antagonist, gsp agonist, Menin MLL FP FL, Sfp PPTase inh
21. O=C(CNC(=O)c1ccccc1)Oc1ccc([N+](=O)[O-])cc1
→ 5, -3, ., 0%, 12%[15.4 µM], 8.1, 8%
22. CC(=O)N1CCc2cc(C(=O)CN3CCN(c4ccccn4)CC3)ccc21
→ -23, 24, ., 2%, -9%[15.4 µM], -1.8, 50µM*
23. CCc1nnc(NC(=O)CCC(=O)Nc2ccccc2)s1
→ 4, 4, -1.3%, -1%, 18%, -0.8, 21%
24. CCc1cc(CNC(=O)C2CCC(=O)N(CCc3ccc(OC)cc3)C2)on1 (stereo unspecified)
→ -6, -2, -12%, 0%, -48%[inhibitor], -1.9, 8%
25. COc1ccc(OC)c(C2C(C(C)=O)=C(O)C(=O)N2CCN2CCOCC2)c1 (stereo unspecified)
→ -3, 3, -4.7%, -3%, -3%, -0.6, -22%
26. COc1ccc(C(=O)C[n+]2ccc(C)cc2)cc1
→ -8, -21, ?, 0%, 0%, 7.6, 0%
27. CCn1cc(C(=O)Nc2sc(C)c(C)c2C(=O)OC)cn1
→ -10, -2, -0.7%, -9%, 32%[15.4 µM], 4.5, -19%
28. COc1nc(NCc2ccco2)nc(NC2CCCCC2)n1
→ -10, -2, -3.2%, -12%, 0%, 3.5, 8%
29. COc1cc(NC(=O)c2ccccc2)c(OC)cc1NC(=O)Cc1ccccc1
→ -6, 0, -0.2%, -23%, 15%[15.4 µM], 0.7, -11%
30. Cc1cccc(-c2nsc(SCC(=O)NCC3CCCO3)n2)c1 (stereo unspecified)
→ -11, 7, -0.1%, 10%, -5%[15.4 µM], -1.6, ?

Later entries.
no.	SMILES	TRPV1 PAM	D2 potentiator	ClpP mod	gsp antagonist	gsp agonist	Menin MLL FP FL	Sfp PPTase inh
41	CSc1nc(C)c(C(=O)Nc2ccccc2)c(-c2ccco2)c1C#N	3	-4	-10.0%	-1%	3%	4.9	7%
42	Cc1cccc(N2C(=O)C(O)=C(C(=O)c3cccs3)C2c2cccc(Oc3ccccc3)c2)n1 (stereo unspecified)	6	-6	.	-14%	?	2.3	-3%
43	Oc1ccc(-c2csc(Nc3ncccn3)n2)cc1	5	-1	41%	9%	-1%[15.4 µM]	4.5	-3%
44	O=C(N/N=C\c1cc([N+](=O)[O-])ccc1N1CCOCC1)c1ccccn1	-9	-4	.	8%	2%[15.4 µM]	-2.8	45µM*
45	CCN(C(=O)CSc1nc2ccccc2c(=O)n1Cc1ccc(C)cc1)C1CCS(=O)(=O)C1 (stereo unspecified)	5	-2	.	-15%	31%[15.4 µM]	.	.
46	COCCNC(=O)C(Cc1c[nH]c2ccccc12)NC(=O)OCc1ccccc1 (stereo unspecified)	-9	2	.	-2%	2%	-6.7	-2%
47	COc1ccc(/C(N)=N/OC(=O)CCC2CCCC2)cc1	-4	-14	-1.2%	-2%	?	-2.1	-9%
48	COc1cccc(CNC(=S)Nc2cc(OC)ccc2OC)c1	-8	-8	.	-5%	10%[15.4 µM]	0.0	15%
49	CC1C2(C)OCC(C#N)(C(=N)O2)C1(C#N)C#N (stereo unspecified)	0	.	.	.	.	?	-3%
50	Cc1cc(/C=C2/SC(=O)N(CC(=O)OC(C)C)C2=O)c(C)n1C	-8	-2	-0.6%	0%	-45%[inhibitor]	1.4	2%
51	O=C(N/N=C\c1cccc(OC(=O)c2ccco2)c1)c1ccc2c(c1)OCO2	-1	-19	-2.6%	27%	-40%[inhibitor]	4.4	5%
52	Cc1cccc(C(=O)OCC(=O)NC(=O)Cc2ccccc2)c1O	-5	-8	-12%	3%	2%	.	16%
53	CN(CCOc1ccccc1)C(=O)C1CCN(C(=O)c2ccc(F)cc2)CC1	2	-17	22µM*	-7%	-8%	.	27%
